# Screens from PubChem BioAssay.
# Anthrax LT inh: qHTS Assay for Anthrax Lethal Toxin Internalization; Cells, anthrax lethal toxin internalization, FRET ratio (460/530); Potency, µM (titrated, usually from 40 µM), for the others: at the top dose activity change, negative = inhibition, usual class: inhibitors; actives 0.67% (n = 70,000); active = well fitted falling ratio curve with the 530 nm signal flat; inconclusive = other ratio curves, or a change in one channel alone; inactive = flat curves in the ratio and both channels; the % refers to the ratio; note: % is set by controls: 0 for no effect and ±100 for the full control effect; nearly all actives have a fitted effect of over 50% in size; tested in ME-180 cells; beta-lactamase reporter
# SmPrx2 inh: Schistosoma Mansoni Peroxiredoxins (Prx2) | Schistosoma mansoni peroxiredoxin 2 (Prx2) | S. mansoni Prx2 activity coupled to TGR/GSH (TGR is thioredoxin glutathione reductase), NADPH fluorescence loss, qHTS; some inactives read as strong as hits | Potency, µM | actives 0.07% (n = 65,000) | AID 448, 2006; active means full or partial inhibition curve with a strong effect at the top dose; inconclusive means weaker partial or single-point curve; inactive means no accepted curve; note: series up to 57 µM; many of its hits are not listed in these tables
#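 Prx2 activity was followed as the loss of NADPH fluorescence (ex 365/em 450 nm), read every 30 sec for 8 min after H2O2 start. The enzyme mix (50 nM Prx2, 25 nM TGR, GSH, NADPH; pH 7.4 phosphate buffer) was incubated with compound for 15 min at room temperature first.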
# Active calls of the source: *; ? = inconclusive; / = no result given; & = joins results of further samples; [ ] = another dose, or the depositor's remark. Potency is the fitted concentration of half-maximal effect. The list is partial (hit frequency here may not be typical).
SMILES,Anthrax LT inh,SmPrx2 inh
COc1cccc(C2c3c(oc4ccccc4c3=O)C(=O)N2CCCN2CCOCC2)c1 (centres undefined),0.6%,>57
O=C(c1cc(-c2ccco2)on1)N1CCN(C(c2ccccc2)c2ccccc2)CC1,-8.0%,>57
COc1ccccc1-n1c(O)c(C=NCc2ccc3c(c2)OCO3)c(=O)[nH]c1=O,-5.7%,>57
N#Cc1ccc(N2CCN(C(=O)c3cccc(F)c3)CC2)c(F)c1,-7.5%,>57
CCn1c(CSc2nc3ccccc3s2)nc2ccccc21,?,/
O=C(O)CCc1nc2ccccc2[nH]1,-3.2%[8 µM],>57
Oc1c(CN2CCc3ccccc3C2)cc(Cl)c2cccnc12,?,>57
CS(=O)(=O)N1CCC2(CCCN(Cc3cc(C(F)(F)F)cc(C(F)(F)F)c3)C2)CC1,7.0%,>57
CC1(c2ccc(Cl)cc2Cl)OCC(Cn2ccnc2)O1 (centres undefined),-4.3%,>57
CCOc1ccc(-n2c(Cc3cc(=O)[nH]c(=O)[nH]3)nnc2SCC(=O)NC2CCCC2)cc1,-12.0%,>57
C[C@@]12CC[C@@H]3[C@@H](CC[C@H]4C[C@@H](O)CC[C@]43C)[C@H]1CC[C@@H]2c1cc(C(F)(F)F)n[nH]1,?,>57
O=C(Cc1ccccc1)n1nc(-c2ccccc2)nc1NCc1ccco1,?,>57
O=C(c1cccc(F)c1)N1CCN(C(=O)c2nn3cccnc3c2Cl)CC1,11.9%,>57
Cc1ccc(S(=O)(=O)NC(=O)c2cc(C)n(CCCN3CCOCC3)c2C)cc1,-2.7%,>57
COc1cc(-c2nc(S(=O)(=O)c3ccc(Cl)cc3)c(N(C)C)o2)cc(OC)c1OC,-15.6%,>57
Cc1cc(NC(=O)CSc2ccc3nnc(-c4ccc(Cl)cc4)n3n2)no1,13.2%,>57
COc1ccc(N2CCN(C(=O)CCCn3c(=S)[nH]c4cc5c(cc4c3=O)OCO5)CC2)cc1,/,>57
COc1ccc(CCN2C(=O)CC(C(N)=O)SC2=Nc2ccccc2)cc1OC (centres undefined),-5.8%,>57
CCOC(=O)CN(C(=O)CSc1nnc(CNc2ccc(F)cc2)o1)c1ccccc1,-6.2%,>57
COc1cccc(C(=O)CSc2nnc(CNS(=O)(=O)c3ccc(C)cc3)n2C)c1,4.6%,>57
CCOc1cc(CN2CCN(C(=O)CC(C)C)CC2)ccc1OC,3.6%,>57
CCOc1ccc(NC(=O)C2CC(=O)NC(N3CCc4ccccc43)=N2)cc1 (centres undefined),-7.6%,>57
c1ccc(CCNc2c3c(nc4ncnn24)CCC3)cc1,-7.1%,>57
CC(=O)n1c(COS(C)(=O)=O)nc2ccccc21,?,>57
CC(C)CC(=O)Nc1ccc(C(=O)COc2ccc(-c3nnco3)cc2)cc1,?,>57
# Next entries.
SMILES,Anthrax LT inh,SmPrx2 inh
COc1cc(NC(=O)CSc2nnc(C)s2)cc(OC)c1OC,5.1%,>57
Cc1cccn2c(=O)c3cc(C(=O)NCC4CCCO4)c(=N)n(Cc4cccnc4)c3nc12 (centres undefined),?,>57
O=S(=O)(Nc1ccc2c(c1)OCO2)c1ccc(Br)s1,-9.4%,>57
Cc1cc(C)n(C(=O)c2ccc(NC(=O)CC(C)C)cc2)n1,-10.6%,>57
CCOc1nc(CC)nc(NC(=O)NS(=O)(=O)c2ccccc2Cl)n1,-11.4%,>57
O=C(Nc1ccc(-c2nc3cccnc3s2)cc1)c1ccc(Br)o1,-20.2%,>57
Cc1noc(C)c1COC(=O)CCCOc1ccc(Cl)cc1Cl,?,>57
COc1cccc(-n2ccnc2SCC(=O)Nc2cc(OC)ccc2OC)c1,-13.9%,>57
CS(=O)(=O)O[C@H]1CN2CCC1CC2,-4.0%[8 µM],>57
Cc1ccc2cc(CCNC(=O)c3ccc(Br)o3)c(=O)[nH]c2c1,0.2%,>57
CCOc1ccccc1NC(=O)CSc1ccccc1,?,/
c1ccc(CC2CCN(c3nc(N4CCOCC4)nc(N4CCOCC4)n3)CC2)cc1,-5.0%,>57
O=C(O)C1CC(=O)N(c2ccc(Br)cc2)C1 (centres undefined),5.2%,>57
COc1ccc(C2C(=O)N(C3CCCCC3)CC(=O)N2CCc2ccccc2)cc1OC (centres undefined),?,>57
COCCn1nnnc1C(c1cccs1)N1CCN(c2ccccc2)CC1 (centres undefined),-16.7%,>57
Cc1ccn2cc(CCNC(=O)CC(C)(C)C)nc2c1,0.0%,>57
CC(=O)OC(C(=O)NCS(=O)(=O)c1ccc(C)cc1)c1cccnc1 (centres undefined),-10.5%,>57
C[C@H]1CC(C)(C)C[C@@](OCCN2CCCCC2)(c2ccccc2)C1,-3.9%[8 µM],>57
CCOC(=O)c1ccc(NC(=O)CCc2nc(-c3ccc(C)cc3)no2)cc1,-6.2%,>57
COC(=O)c1cccc(NC(=O)Cn2cnc3ccccc3c2=O)c1,-2.8%,>57
O=C(c1ccc2c(c1)OCO2)N1CCN(c2ccccc2F)CC1,-14.7%,>57
Nc1nonc1C(=Nc1ccccc1)NO,5.5%,>57
Cc1ccc(C2C(C#N)=C(N)Oc3n[nH]c(C)c32)cc1 (centres undefined),-4.1%,>57
COC(=O)c1cc(NC(=O)c2ccoc2C)cc(C(=O)OC)c1,-8.9%,>57
CCOc1cc(C(=S)N2CCN(C)CC2)ccc1OCC(=O)N1CCOCC1,?,>57
# Other entries:
SMILES,Anthrax LT inh,SmPrx2 inh
Nc1ccc2oc(-c3cccc(Br)c3)nc2c1,-18.5%,>57
COc1ccccc1NC(=O)N1CCCC1C(=O)NCc1ccccc1F (centres undefined),5.0%,>57
CCN(CC)C(=O)CSCC(=O)Nc1ccccc1,0.0%,>57
Cc1cc(=O)[nH]c2cc3oc4ccccc4c3cc12,1.6%[8 µM],>57
Cc1nn(C)cc1CN(C)C(=O)c1nn2c(c1Cl)NC(c1cccs1)CC2C(F)(F)F (centres undefined),4.1%,>57
O=C(O)Cc1ccc2[nH]c3ccc(CC(=O)O)cc3c2c1,/,>57
C#CCN(C)Cc1ccccc1,-3.6%[3.58 µM],>57&>57
Cc1ccccc1C(=O)N1CCCN(C(=O)c2ccccc2C)CC1,7.2%,>57
CCOc1ccc(C(C)=O)cc1N1C(=O)C2C3C=CC(C3)C2C1=O (centres undefined),8.7%,>57
CN(c1ccccc1C(=O)N1CCOCC1)S(C)(=O)=O,9.4%,>57
O=CN1CCN(C2CC(=O)N(c3ccc(Br)cc3)C2=O)CC1 (centres undefined),-12.6%,>57
N=C(N)SCCSC(=N)N,6.4%[8 µM],>57
COCCn1nnnc1C(C(C)C)N1CCOCC1 (centres undefined),-9.0%,>57
C=C(Cl)CSC(=S)N(CC)CC,?,/
CC(C(=O)Nc1ccc(S(=O)(=O)N2CCOCC2)cc1)N(c1ccccc1)S(C)(=O)=O (centres undefined),-5.1%,>57
COc1cc2c(cc1OC)C(c1ccc3c(c1)OCO3)CC(=O)N2 (centres undefined),-17.2%,>57
Nn1cnnc1SCC(=O)Nc1ccc(C2CCCCC2)cc1,3.3%,>57
CCOc1cc(C2C(C#N)=C(N)Oc3n[nH]c(-c4ccccc4)c32)ccc1O (centres undefined),?,>57
Cc1cc(NCCN2CCOCC2)n2nc(C)c(-c3ccc(Cl)cc3)c2n1,?,>57
O=C(c1cn(-c2ccccc2)nc1-c1ccc(Cl)s1)N1CCOCC1,-16.4%,>57
COc1ccc(/C=C/C2=CC3(C)CC2(C)C(c2ccc(OC)cc2)CC3=O)cc1 (centres undefined),-5.8%[8 µM],/
COc1ccc(-n2c(=O)cc(N3CCN(Cc4ccccc4)CC3)[nH]c2=O)cc1,-3.8%,>57
COc1ccc(N2C(=O)CCC(C(=O)N3CCCCC3)C2c2ccc(OC)c(OC)c2)cc1 (centres undefined),6.9%,>57
Cc1ccc(S(=O)(=O)Nc2cc(=O)[nH]c3c2CCC3)cc1,-2.9%[8 µM],>57
Cc1nnc(NC(=O)c2ccc(S(=O)(=O)N3CCCCCC3)cc2)o1,2.8%,>57
# Further records:
SMILES,Anthrax LT inh,SmPrx2 inh
O=C(Nc1ccc2c(c1)OCCO2)C1CCCN(S(=O)(=O)c2cccs2)C1 (centres undefined),-4.1%,>57
CCOc1nc(OCC)nc(-n2cc(-c3ccccc3)nn2)n1,-16.5%,/
CCN1CCN(C(=O)Cn2ncc3c2-c2ccccc2OC3)CC1,-6.7%,>57
C=C(C)c1cccc(C(C)(C)NC(=O)N2CCN(c3ncccn3)CC2)c1,/,>57
CN(C)CCC(=O)c1ccc(Cl)cc1,?,>57
Cn1c(C(=O)N2CCCC(C(=O)NCCN3CCOCC3)C2)cc2sccc21 (centres undefined),8.6%,>57
Cc1nnc(NC2CCCCC2)[nH]c1=O,5.3%,>57
O=C(Cn1c(C(=O)N2CCc3ccccc3C2)cc2sccc21)c1ccccc1,?,>57
Cc1cc(CNC(=O)c2cc(Br)ccc2Cl)nn1C,/,>57
c1cncc(CSc2ncnc3nc[nH]c23)c1,0.5%[8 µM],>57
N#CC1=C(N)Oc2c(oc(CO)cc2=O)C1c1ccsc1 (centres undefined),-1.9%,>57
O=C1c2cccnc2C(Nc2ccc(S(=O)(=O)N3CCCCCC3)cc2)N1Cc1ccccc1 (centres undefined),?,>57
Cc1ccc(S(=O)(=O)N2CCOCC(=O)NCCOCCNC(=O)COCC2)cc1,3.5%,>57
Cc1ccc(-n2c(C)cc(C(=O)OCC(=O)N(C)C3CCS(=O)(=O)C3)c2C)cc1 (centres undefined),-19.3%,>57
Cc1onc(-c2ccccc2)c1C(N)=O,6.4%,>57
O=C(NCCN1C(=O)C2C3C=CC(C3)C2C1=O)Nc1ccccc1O (centres undefined),-6.1%,>57
O=C(COc1ccc(S(=O)(=O)N2CCc3ccccc32)cc1Cl)NCc1ccccn1,/,>57
C=CCn1nnc2sc3c(c2c1=O)CCC(C)C3 (centres undefined),-7.3%,>57
O=c1[nH]c(=O)n(Cc2ccccc2)c(O)c1C=NCCCO,0.4%,/
CC(C)C(c1nnnn1Cc1ccc(F)cc1)N1CCN(Cc2ccc3c(c2)OCO3)CC1 (centres undefined),-10.3%,>57
O=C(Oc1ccc(Cl)c2cccnc12)N1CCCCC1,0.4%,>57
O=C(NCc1ccco1)c1ccccc1NC(=O)C1CC(=O)N(c2ccc(Cl)cc2)C1 (centres undefined),7.5%,>57
COc1ccc(CNC(=O)C(OC(C)=O)c2ccccn2)cc1 (centres undefined),10.8%,>57
COc1ccc(-n2nnc3c(=O)n(C/C=C/c4ccccc4)cnc32)cc1,?,>57
CN1CCN(S(=O)(=O)c2ccc(NC(=O)C3CCCO3)cc2)CC1 (centres undefined),11.1%,>57
# Next part
SMILES,Anthrax LT inh,SmPrx2 inh
CC(=O)N1CCN(c2ccc(NCc3ccc(C)s3)cc2)CC1,-6.8%,>57
O=C(OCCO)c1cc(Cl)c(C(=O)OCCO)cc1Cl,-7.8%,>57
Cc1nn(-c2ccccc2)cc1/C=N/O,-1.5%,>57
O=C(CCN1CCCCC1)Nc1ccc(Br)cc1,-15.7%,>57
Cc1nnc(C)c2c(C)n(Cc3ccc4c(c3)OCO4)c(C)c12,3.6%,>57
CC(C)=CC(=O)N1CCCc2ccccc21,12.1%,>57
COC(=O)C(C)Sc1nc2c(c(=O)[nH]c(=O)n2C)n1CCCc1ccccc1 (centres undefined),13.7%,>57
COc1cc(-c2nnc(CSc3nnc4nc(C)cc(C)n34)o2)cc(OC)c1OC,?,>57
COc1ccc(C(=O)N2CCN(c3nnnn3-c3ccccc3)CC2)cc1OC,7.1%,>57
COc1ccc(Nc2cc(C)nc(N3CCOCC3)n2)cc1,-20.5%,>57
CC(C)CCNC(=O)c1c(N)n(CC2CCCO2)c2nc3ccccc3nc12 (centres undefined),/,>57
Cc1nc2ccc(S(=O)(=O)N(C)CC(=O)N3CCc4ccccc4C3)cc2s1,-15.8%,>57
CCOC(=O)Cc1csc(NC(=O)c2ccc(S(=O)(=O)N3CCCC3)cc2)n1,-6.4%,>57
O=C(COC(=O)c1cc(=O)[nH]c2ccccc12)NC(=O)NC1CCCCC1,-4.4%,>57
CNc1ccccc1C(=O)OCC(=O)c1ccccc1,-9.2%[8 µM],/
Cc1ccc(C(=O)Nc2nncs2)cc1S(=O)(=O)N1CCOCC1,-22.8%,>57
Cc1ccc2c(CSc3nnc(C4CC4)n3N)cc(=O)oc2c1C,20.8%,>57
COCC(=O)Nc1ccc(C(N)=O)cc1,-5.3%,/
O=C1CCCC2=C1C(c1cccc(Br)c1)n1nc(-c3ccco3)nc1N2 (centres undefined),-18.6%,>57
